# From PubChem BioAssay
# ugtP null kill: kills S. aureus RN4220 lacking UgtP; S. aureus RN4220 ugtP deletion, OD600 growth, 16 h; some inactives read as strong as hits; growth inhibition, % (no concentration beside the values); 330,000 compounds, 0.54% hits;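 active = z-score under -3 and OD600 up to 0.15 on both plates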;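 note: plate controls were untreated wells for no effect and antibiotic for full effect; wells of about 80 µL received 100 nL stock; the first replicate is given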
# BJeLR lethal: kills HRASV12-expressing BJeLR cells; BJeLR (HRASV12) viability, CellTiter-Glo ATP luminescence, 48 h; reference of the scale not given here; inhibition, % (test concentration not listed); 300,000 compounds, 0.17% hits;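 active = replicate mean above 50%; inconclusive = above 50% but judged a plate artefact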;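 note: 50 nL library stock added to about 25 µL; numbers are from one replicate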
# RN4220 kill: kills Staphylococcus aureus RN4220 | S. aureus RN4220 growth, OD600, 16 h | AID 1259311 | inhibition, % (test concentration not listed) | 330,000 compounds, 0.33% hits;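 active = z-score of -3 or lower and OD600 up to 0.18 on both plates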;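 note: plate controls were untreated cells for no effect and reference antibiotic for full effect; stock transfer was 100 nL into about 80 µL; one replicate is shown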
# PrP 5UTR inh: suppresses PrP 5' UTR mRNA reporter expression. cell-based PrP 5' UTR mRNA reporter, plate reader. inhibition, % (no concentration beside the values). 340,000 compounds, 0.35% hits. AID 488862;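 active = every replicate at 50% or more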;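 note: 0 = median of the neutral control wells; tested in H4 reporter cells; numbers are from one replicate; inactives centre near -14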
# Mtb hypoxia inh: inhibitors of hypoxia-regulated fluorescent reporter in Mycobacterium tuberculosis. M. tuberculosis hypoxia-regulated fluorescent reporter, fluorescence. 300,000 compounds, 0.1% hits. fluorescence inhibition, % (test concentration not listed). AID 1159583;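 active = 35 to 45% if threefold the growth effect, above 45% if 1.5-fold the growth effect; inactive = the rest, general growth blockers included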;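 note: wells of about 50 µL received 100 nL stock; 0% = vehicle wells and 100% = reference inhibitor wells; whole bacteria with a GFP reporter of the hypoxia response; strong numbers were not always called active; many hits fall short of the cut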
# Autofluor counter: flagged as autofluorescent in microsphere protease counterscreen; compound autofluorescence counterscreen, microsphere flow cytometry; active compounds read high; fluorescence intensity (no concentration beside the values); 360,000 compounds, 3.1% hits; AID 624483;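 active = at least 3 SD above the mean of all compounds, about 16000 in these data; inconclusive = too few beads counted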;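 note: 100 nL of 1 mM stock went into each well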
# Mtb hypoxia inh growth: recorded beside Mtb hypoxia inh, whose call it bears; growth inhibition, %; measured here: M. tuberculosis growth (absorbance);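 0% = vehicle and 100% = reference antibiotic; read after six days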
# * hit, by the source's call; ? = inconclusive; / = not tested or not shown.
SMILES,ugtP null kill,BJeLR lethal,RN4220 kill,PrP 5UTR inh,Mtb hypoxia inh,Mtb hypoxia inh growth,Autofluor counter
CCc1nnc(NS(=O)(=O)c2ccc(NC(=O)c3cccc(OC(F)(F)C(F)F)c3)cc2)s1,-18,0,-5.4,-8,-10,3,4054
Cc1cccc2c(CC(=O)O)noc12,-4,-4,-4.2,-10,-7,2,1953
COc1ccccc1CCc1nnc(CCC(=O)NC(C)Cc2cccs2)o1 (stereo unspecified),3,4,2.0,-20,16,8,2324
COc1cc2c(c(OC)c1OC)-c1c(cc3c(c1O)OCO3)C[C@@H](C)[C@@H](C)C2,/,-14,/,-27,/,/,3304
Cc1cc(C(=O)NC2CCCCCCC2)ccc1[N+](=O)[O-],6,-11,1.6,-71,/,/,3807
Cc1ccc(S(=O)(=O)N2CCOCC2)cc1C(=O)Nc1ccc(N2CCCCCC2)cc1,-1,/,1.9,-21,-1,-2,/
CCOC(=O)CCCc1ccc(/C(C)=N/NC(N)=S)cc1,/,2,/,-25,/,/,4718
CC(C)CC(=O)N1CCN(Cc2ccc(Cl)cc2)CC1,2,-1,3.6,-20,10,5,3464
CC(NC(=S)NC(=O)c1ccccc1)c1ccccc1 (stereo unspecified),-33,14,-6.5,-41,-4,-10,6380
Cc1cc(C)c(NC(=O)c2ccc(CN3CCc4ccccc4C3)cc2)c(C)c1,-3,-1,-17,2,3,1,3326
CCCCCCn1c(SCCCC)nc2c1c(=O)[nH]c(=O)n2C,-9,/,1.3,-7,/,/,5710
C[C@]12CCC(O)CC1=CCC1C2CC[C@]2(C)/C(=N\NC(N)=S)CCC12 (stereo partly specified),/,-1,/,-3,/,/,3483
Cc1nn2cnnc2c(C)c1Cc1ccc(Cl)cc1,-11,0,0.2,0,0,3,3048
Cc1ccc(S(=O)(=O)N=C(c2ccc(F)cc2)N2CCCC2)cc1,8,/,6.0,/,8,0,/
COc1cc(OC)cc(C(=O)NCCCN2CCN(CCCNC(=O)c3cc(OC)cc(OC)c3)CC2)c1,2,0,5.9,-7,13,4,7694
CC(=O)Oc1ccc(C=NNS(=O)(=O)c2ccccc2)cc1,1,/,1.7,/,-5,7,/
COc1ccc(C=NNC(=O)c2cccc([N+](=O)[O-])c2)cc1OS(=O)(=O)c1ccc(C)cc1,-7,/,3.8,/,8,12,/
Cc1cc(C)c(OCCN2CCOCC2)c(Cl)c1,4,1,4.6,-26,8,0,4253
CC(C)CNC(=O)c1ccccc1Oc1ccccc1,11,-7,1.8,-27,/,/,2243
CN(C)CC(C)(C)NS(=O)(=O)c1ccc(Cl)cc1,13,4,5.3,-1,4,3,7556
c1coc(CNCCc2c[nH]c3ccccc23)c1,0,-12,4.1,-22,7,14,4152
CCOc1cc(C2C3=C(CC(C)(C)CC3=O)Nc3n[nH]c(C)c32)ccc1O (stereo unspecified),1,3,2.3,-11,1,-6,3728
CCN(CC)P(=O)(Nc1ccc(SC(F)F)cc1)c1ccc(N(C)C)cc1NC(=O)c1ccco1 (stereo unspecified),8,-12,-6.2,-16,-2,8,4619
COc1ccc(-c2cc(-c3ccc(O)cc3)nc(N)c2C#N)cc1OC,-4,3,12,-15,5,1,4827
C=CCNC(=S)/C(=C(\[O-])c1ccc(Cl)cc1)[n+]1ccccc1,-3,-2,-1.4,-7,0,-6,/

# The list goes on; the last two above are carried over.
SMILES,ugtP null kill,BJeLR lethal,RN4220 kill,PrP 5UTR inh,Mtb hypoxia inh,Mtb hypoxia inh growth,Autofluor counter
COc1ccc(-c2cc(-c3ccc(O)cc3)nc(N)c2C#N)cc1OC,-4,3,12,-15,5,1,4827
C=CCNC(=S)/C(=C(\[O-])c1ccc(Cl)cc1)[n+]1ccccc1,-3,-2,-1.4,-7,0,-6,/
CCCCCCCNC(=O)C1(CC2CC(c3ccc(Cl)cc3)=NO2)CCNCC1 (stereo unspecified),-26,9,-1.3,10,25,22,2997
COc1ccc(C(C)(C)C)cc1NC(=O)CNc1cccc2ccccc12,-26,-15,-8.6,-14,10,9,2020
Brc1cnc(OCc2ccccc2)nc1OCc1ccccc1,50,/,-1.8,2,-2,10,?
O=C(CSc1ncn[nH]1)N1CCN(S(=O)(=O)c2ccc(Cl)cc2)CC1,3,-9,6.4,-13,12,1,21069*
CCOc1ccccc1/C=C(/NC(=O)c1ccccc1)C(=O)NC(C)c1ccccc1 (stereo unspecified),2,0,5.5,-21,7,4,10021
C/C(=N\NC(=O)C(N)=O)c1ccc(NC(=O)c2cccs2)cc1,/,-6,/,-86,/,/,3394
CCC(C)OC(=O)n1ccc(C(=O)Nc2nccs2)n1 (stereo unspecified),0,-1,4.4,-20,0,-1,12129
N#CCC(=O)NN=Cc1ccccc1OC/C=C/c1ccccc1,2,/,36,/,4,4,/
Cc1ccc(-c2oc3ncnc(N)c3c2-c2ccc(C)cc2)cc1,56,-6,-2.5,6,-1,-3,11213
CC1(C)CC(=O)C2=C(C1)OC1=C(C(=O)CC(C)(C)C1)C2c1cc([N+](=O)[O-])cc([N+](=O)[O-])c1O,2,6,1.0,-4,-4,-2,3537
COc1ccc(NC(=O)C(NC(=O)c2ccc(=O)[nH]c2)c2ccc(C)cc2)cc1 (stereo unspecified),8,8,6.5,-11,4,4,2440
CC(Cc1ccccc1)=NNC(=O)CNC(=O)Cc1ccccc1,3,/,1.3,/,0,0,/
C=CCn1c(O)c(/C=C/C=Nc2ccccc2)c(=O)[nH]c1=O,2,0,1.5,-9,4,-1,2763
CC(C)Sc1nc2ncnc(N)c2[nH]1,9,-2,9.5,-10,11,-3,4918
O=C(O)CNc1ccccc1C(=O)O,-3,6,2.5,-13,1,4,4185
COc1ccc(OC)c(S(=O)(=O)N(C)CC(=O)Nc2ccc3c(c2)OCO3)c1,4,-7,6.6,-26,5,5,2500
CCOc1ccccc1NC(=S)N1CCN(c2cccc(OC)c2)CC1,1,-11,3.8,-10,-8,0,4024
Cc1cccc(OCC(=O)NC(=S)Nc2ccc(S(=O)(=O)NC3CCCCC3)cc2)c1,7,1,-1.3,-8,/,/,4231
CCCCN(C(=O)c1cccc(-n2cccc2)c1)c1c(N)n(CCCC)c(=O)[nH]c1=O,3,-2,4.1,-9,5,1,/
Cc1cc(SCC(=O)N/N=C/c2ccc(O)c(O)c2)nc2ccccc12,/,-3,/,-30,/,/,3287
O=c1ccc(-c2ccc(S(=O)(=O)Nc3cccc([N+](=O)[O-])c3)s2)n[nH]1,4,-3,2.2,0,7,16,4637
O=C(NN=C/C=C\c1ccco1)c1cccnc1,9,/,0.8,/,9,3,/
Cc1ccc(CSCc2ccc(C(=O)NCCC(C)C)o2)cc1,7,-2,-1.3,/,5,1,3517
Cc1[nH]c(N=Nc2ccccc2)nc1N=Nc1ccccc1,/,5,/,-23,/,/,4093
CNC(=O)c1cc(C(=O)c2ccc(C(F)(F)F)cc2F)c[nH]1,-1,-6,4.7,-12,7,-6,4605

# Overlap with the part before: 4 entries; new compounds follow.
SMILES,ugtP null kill,BJeLR lethal,RN4220 kill,PrP 5UTR inh,Mtb hypoxia inh,Mtb hypoxia inh growth,Autofluor counter
O=C(NN=C/C=C\c1ccco1)c1cccnc1,9,/,0.8,/,9,3,/
Cc1ccc(CSCc2ccc(C(=O)NCCC(C)C)o2)cc1,7,-2,-1.3,/,5,1,3517
Cc1[nH]c(N=Nc2ccccc2)nc1N=Nc1ccccc1,/,5,/,-23,/,/,4093
CNC(=O)c1cc(C(=O)c2ccc(C(F)(F)F)cc2F)c[nH]1,-1,-6,4.7,-12,7,-6,4605
CCOc1ccc(N2C(=O)CN(c3cccc4ccccc34)C2=S)cc1,16,-1,2.1,-26,3,2,4622
CCN(CC)C(=S)NC(=O)C12CC3CC(CC(C3)C1)C2,8,1,5.0,-20,3,4,4593
O=C(c1ccc(-c2ccc([N+](=O)[O-])cc2)o1)N1CCN(S(=O)(=O)c2cccs2)CC1,2,/,5.0,-11,-1,10,3333
Cc1cnc(C(=O)OCC(=O)Nc2ccc(C)c(S(=O)(=O)N(C)C)c2)cn1,0,-4,0.9,-36,7,7,5310
CC(C)n1cc(C(=O)N(CC(=O)NC(C)(C)C)Cc2ccccc2)cn1,8,0,6.8,-11,7,13,3485
CCN(c1ccc(NC(=O)COC(=O)c2ccc(C)s2)cc1)C(C)C,2,5,8.5,-49,6,-5,3841
CCCCc1cc(=O)oc2cc(OCC(=O)NC3CCN(Cc4ccccc4)CC3)ccc12,-7,2,-8.6,-17,8,5,4781
COc1cc(C(=O)NC2CCN(CC(=O)Nc3cccc(C)c3C)CC2)cc(OC)c1OC,/,-4,/,-19,/,/,3530
COc1ccc2nc(NC(=O)c3cc(S(=O)(=O)N4CCOCC4)ccc3C)sc2c1,-2,-1,3.3,-11,/,/,2521
O=C(NC(=S)Nc1ccccc1N1CCOCC1)c1ccco1,/,0,/,-2,/,/,2377
CCOC(=O)N1CCN(C(=O)CSCC(=O)N=c2sc3ccccc3n2C)CC1,12,6,-0.7,-4,/,/,2786
CCCC1CC(C#N)N(N(C)C)C1=C(C#N)C#N (stereo unspecified),9,-6,6.6,-70,-2,1,4204
CC1=C(C(=O)Nc2ccccn2)C(c2cn(C)nc2C)C2=C(CCCC2=O)N1 (stereo unspecified),0,-6,3.9,2,2,1,2113
CCCCOC(=O)C1C2C=C[C@]3(CN(C(C)c4ccc(OC)cc4)C(=O)[C@H]13)O2 (stereo partly specified),-4,1,-23,1,-1,7,3266
COc1cc(/C=N/NC(=O)c2ccccc2O)ccc1OCC(=O)Nc1ccccc1,/,7,/,-1,/,/,3027
O=C1NC(=O)C(=Cc2ccccc2Oc2ccc(Cl)cc2)S1,3,/,2.8,/,0,6,/
CC1(C)CC(=O)C(C=NCCc2ccccn2)=C(O)C1,4,15,4.7,-1,4,0,9859
O=C(c1ccc(O)c(Cl)c1)N1CCN(S(=O)(=O)c2ccccc2)CC1,-1,8,-5.8,-10,-7,-4,6134
O=C(c1ccco1)N1CCC(c2nc3c(nnn3Cc3c(Cl)cccc3Cl)c(=O)[nH]2)CC1,7,-6,-2.7,-9,-3,10,3492
Cc1cc(C)cc(N(C(=O)c2snc(C(N)=O)c2N)C(C(=O)NCC2CCCO2)c2cccs2)c1 (stereo unspecified),4,-14,14,-29,7,6,4321
CCS(=O)(=O)c1ccc(O)c(NC(=O)/C=C/c2ccc(Cl)cc2)c1,5,-3,4.4,-24,9,3,5025
Cc1c(NC(=O)C(C)Sc2nccn2C)c(=O)n(-c2ccccc2)n1C (stereo unspecified),3,/,3.5,-31,2,6,?
CC1=NN(Cc2ccccc2)C(=O)C1C(c1ccccc1)C(C#N)C#N (stereo unspecified),-1,2,4.7,-16,13,3,3422
CC(C)N1CCN(CC2COc3ccccc3O2)CC1 (stereo unspecified),-6,-19,1.3,-10,-12,7,3467
Cc1ccc(C)c2nc(N3CCCC3)c(C#N)cc12,4,12,5.3,-10,/,/,4615

# Other compounds.
SMILES,ugtP null kill,BJeLR lethal,RN4220 kill,PrP 5UTR inh,Mtb hypoxia inh,Mtb hypoxia inh growth,Autofluor counter
CC1=CCP(=O)(c2ccccc2)C1 (stereo unspecified),-4,13,-9.0,-17,1,5,2857
O=C(CNC(=O)c1ccc(Cl)cc1Cl)NCC(=O)Nc1ccccc1N1CCOCC1,-3,12,1.4,-16,/,/,4788
CC(=O)Nc1ccc(S(=O)(=O)N2CCN(c3ccccn3)CC2)cc1,-3,-4,0.1,-26,6,6,10554
C=C(c1ccc(OCCO)cc1)c1ccc(OCCO)cc1,0,2,-0.2,1,/,/,2590
Cc1cccc(NC(=O)N(Cc2nc3ccccc3c(=O)[nH]2)C2CCCC2)c1,5,1,3.6,-24,/,/,4986
COc1ccccc1C(=O)NNC(=O)C(=O)NC1CCCCC1,-4,-16,0.0,1,-1,19,4173
COCc1cc(C)nc(SCC(=O)Nc2cc(C(F)(F)F)ccc2N2CCOCC2)c1C#N,8,3,2.9,-3,12,11,6196
Fc1cccc(Cc2noc(CN3CCOCC3)n2)c1,-3,10,4.8,-19,1,2,4633
CSc1nc(C)cc(SCC(=O)N/N=C/c2ccccc2)n1,/,3,/,-6,/,/,2588
C=CCNc1nc(-c2ccc(Cl)cc2)cs1,37,5,-13,-115,18,7,2469
CC(NC(=O)CN(C)Cc1nc2ccccc2c(=O)[nH]1)c1ccccc1 (stereo unspecified),-7,14,9.6,-2,/,/,2992
COC(=O)Cc1ccc(NC(=S)N2CCCC(CO)C2)cc1 (stereo unspecified),/,1,/,1,/,/,9018

# Rows were taken by chance; about 4.1% have a hit in one of these screens.
